StopGo reporter: lowers the luciferase signal of an FMDV 2A StopGo reporter; Potency, µM (doses to about 57.9 µM), for inactives: top-dose signal change, negative = less light; human cells with a luciferase reporter of 2A StopGo recoding; control for the full effect not named in the record; actives 1.2% (n = 410,000); AID 1159524; active = well fitted falling curve with a large enough effect; inconclusive = small, poorly fitted or top-dose-only effect; inactive = no such curve, though single readings can be large or run the other way; tested in HEK293T cells; further: nearly all actives have a fitted effect of over 45% in size; luciferase light after 4 h
RE007 growth inh: less growth of the S. pombe RE007 Vpr strain; Potency, µM (doses to about 92.2 µM), without a hit: at the top dose activity change, negative = less growth; actives 0.21% (n = 360,000); AID 651644; S. pombe RE007 Vpr strain, BacTiter-Glo ATP luminescence, 24 h; control for the full effect not named in the record; active = well fitted falling curve with a large enough effect; inconclusive = small, poorly fitted or top-dose-only effect; inactive = no such curve, though single readings can be large or run the other way;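 further: nearly all actives have a fitted effect of over 50% in size; the assay follows cell death caused by Vpr and the record does not say whether a fall means rescue or toxicity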
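Fission yeast strain RE007, carrying one chromosomally integrated HIV-1 vpr copy, was seeded at OD 0.01 in PMG+AL medium with 23 nL pinned compound. After 24 h at 30 °C and 99% humidity, viability was read by BacTiter-Glo luminescence.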
Active calls of the source: *; u = inconclusive; [ ] = remark or other dose. On the % scale 0 is the no-effect control and ±100 the full control effect; potency means the concentration at half of the fitted maximal effect. Not all compounds are listed, so the mix of outcomes need not match the whole.

Fields – StopGo reporter	RE007 growth inh
CCc1ccc(CNC(=O)C2CCN(S(=O)(=O)N3CCCCC3)CC2)cc1
 : 0%	7%
O=C(COC(=O)c1cccc(OC(F)F)c1)Nc1cc(S(=O)(=O)N2CCCC2)ccc1Cl
 : -21%	-7%
COc1cccc(C(C(=O)NC2CCCC2)N2CCN(c3ncccc3C#N)CC2)c1OC (configuration not stated)
 : -11%	-18%
Cc1cccc(C)c1-n1nnnc1C(C1CC1)N1CCC(n2c(=O)[nH]c3ccccc32)CC1 (configuration not stated)
 : u	-4%
Cc1cn([C@H]2C[C@H](O)[C@@H](CCC(=O)NCc3cccs3)O2)c(=O)[nH]c1=O
 : -17%	10%
CN(C(=O)c1cccc(NC(=O)Cc2ccc(NC(=O)C3CCN(S(=O)(=O)c4cccc([N+](=O)[O-])c4)CC3)cc2)c1)C1CCCC1
 : -7%	-7%
COc1ccccc1-c1cnc(C(O)c2ccc(C(C)(C)C)cc2)[nH]1 (configuration not stated)
 : -14%	-8%[18.4 µM]
CC#CCN1c2ccccc2[C@]23C[C@@H](C(=O)OC)N(C(=O)NCCBr)C2=NC(C(=O)OC)=C(C(=O)OC)[C@H]13
 : -1%	-12%
COc1ccccc1-c1cnc(C(O)c2ccc(Cl)cc2C)[nH]1 (configuration not stated)
 : 13%	-30%[18.4 µM]
Cc1n[nH]c(=O)n(N=Cc2c[nH]c3ccccc23)c1=O
 : -9%	-7%
NC(COCc1ccccc1)c1csc(Nc2ncccn2)n1 (configuration not stated)
 : 1%	-6%[18.4 µM]
CCc1nc2ccc(C(=O)NC3CCN(Cc4ccccc4)CC3)cn2c1N(CC)Cc1cccc(Br)c1
 : -24%	-20%[18.4 µM]
COc1ccc(COC(=O)CCCN=C2NS(=O)(=O)c3ccccc32)cc1F
 : -25%	-6%
C[C@@H]1CN([C@@H](C)CO)C(=O)CCCn2nncc2CO[C@@H]1CN(C)C(=O)Oc1cccc2ccccc12
 : -21%	-12%
COc1ccc(S(=O)(=O)N2CCOCC2)cc1NC(=O)CCCOc1ccc(C(C)=O)cc1
 : 0%	-11%
Nc1c(C(=O)Nc2ccc(Br)cc2)sc2nc(N3CCOCC3)c3c(c12)CCCC3
 : -9%	-15%
COc1ccc(N2c3ccccc3CN(Cc3ccccc3)[C@@H](C)[C@H]2Cc2c(C)cccc2C)cc1
 : -30%	-12%
CCOC(=O)C1CCCN(C(=O)c2ccc3ccccc3c2)CC1 (configuration not stated)
 : 26%	-11%
CC(=O)OC[C@@H]1CN(Cc2ccccc2)C[C@H](n2cnc3c(NC4CCCC4)ncnc32)O1
 : 3%	1%
CN1CCN(C(=O)C2=C[C@H](c3ccc(C(F)(F)F)cc3)C[C@H](OCCCCO)O2)CC1
 : -7%	9%

Part of the list above, field by field:
COc1ccc(N2c3ccccc3CN(Cc3ccccc3)[C@@H](C)[C@H]2Cc2c(C)cccc2C)cc1
  StopGo reporter: -30%; RE007 growth inh: -12%
Cc1cn([C@H]2C[C@H](O)[C@@H](CCC(=O)NCc3cccs3)O2)c(=O)[nH]c1=O
  StopGo reporter: -17%; RE007 growth inh: 10%
Nc1c(C(=O)Nc2ccc(Br)cc2)sc2nc(N3CCOCC3)c3c(c12)CCCC3
  StopGo reporter: -9%; RE007 growth inh: -15%
CC#CCN1c2ccccc2[C@]23C[C@@H](C(=O)OC)N(C(=O)NCCBr)C2=NC(C(=O)OC)=C(C(=O)OC)[C@H]13
  StopGo reporter: -1%; RE007 growth inh: -12%

(further entries)
Fields – StopGo reporter	RE007 growth inh
COC(=O)C1=C(c2cc3ccccc3s2)C[C@@H]2CC[C@H]1N2C(=O)NCCO
 : -6%	10%
Oc1ccc(C[C@H]2CNC(=S)N2CC2CCCN2C[C@H](Cc2ccc(O)cc2)N2C[C@H](Cc3ccc(O)cc3)N(CC3CCCCC3)C2=S)cc1 (some centres not stated)
 : u	1%
C[C@H](O)[C@H](O)[C@H]1CNc2nc(N)[nH]c(=O)c2N1
 : -11%	1%[18.4 µM]
O=C1NC[C@H](CCCCN2CCN(CCC3CCCCC3)C(=O)C2=O)N(CCc2ccc(O)cc2)C1=O
 : -19%	-15%
COc1ccc(C(=O)NCCNc2nc3cc(C)cc(C)c3cc2C#N)c(OC)c1
 : u	0%
OCc1nc2ccccc2n1CCOc1ccccc1
 : -7%	-15%
C=Cn1cc(CNC[C@H]2O[C@@H](n3cc(C)c(=O)[nH]c3=O)C[C@@H]2O)c(C)n1
 : -11%	-18%
CCCCNc1c(-c2cc3ccccc3o2)nc2nc(C)cc(C)n12
 : 11%	-11%
CCO[C@H]1OC(C(N)=O)=C[C@@H](C(C)(C)C)[C@@H]1CCCO
 : -10%	2%
COc1cc(CNC(=O)Nc2nnc([C@H]3C[C@H](O)[C@@H](CO)O3)s2)cc(OC)c1OC
 : -24%	6%[18.4 µM]
O=C(Nc1ccc(F)cc1)N[C@H]1CC[C@H](CCNS(=O)(=O)c2cccc(Cl)c2)O[C@@H]1CO
 : -11%	-13%
O=C(O)C(O)(c1ccc(Cl)cc1)C1(O)CCCC1 (configuration not stated)
 : -4%	-8%
Cc1cc2c(cc1C)N[C@]1(C[C@H]3CCCC(=O)N4CC[C@@H](C1)[C@@H]34)C(=NC(C)(C)CC(C)(C)C)N2
 : -20%	1%
CC1(C(=O)NCc2ccccc2)CCC(=O)N1CCCn1ccnc1 (configuration not stated)
 : -9%	8%
CCOc1ccc(-c2cc(C(=O)NCCOC)[nH]n2)c(C)c1
 : 8%	19%
CC1CCCC(NC(=O)COC(=O)c2ccccc2C(=O)N(C)C2CCCCC2)C1C (configuration not stated)
 : 0%	7%
CN(C)c1ccc(Sc2ccc3nc(N)nc(N)c3c2)cc1
 : -30%	-1%
COC(=O)c1c(-c2ccc(OC)cc2)oc2ccc(-c3cc(OC)c(OC)c(OC)c3)cc12
 : -22%	-16%
Cc1cccc(C#CC2=CC(=O)CC(C)(C)C2)c1
 : 17%	-24%
CC1(C(=O)NS(=O)(=O)c2ccc(F)cc2F)CCN1C(=O)c1ccco1 (configuration not stated)
 : -8%	-1%
O=c1[nH][nH]c2c1[C@@H](c1ccc(F)cc1)O[C@H](CCc1ccccc1)C2
 : -21%	0%
Cc1ccc(S(=O)(=O)NC(=O)C2(C)CCN2C(=O)C2(c3ccc(Cl)cc3)CC2)nc1 (configuration not stated)
 : 23%	0%
CCCS(=O)(=O)NC(=O)C1(C)CCN(C(=O)c2ccc(C#N)cc2)C1 (configuration not stated)
 : 3%	8%
O=C(Nc1ccnn1C1CCN(Cc2ccc(CO)o2)CC1)c1cccc(F)c1
 : 6%	1%
CCNC(=S)Nc1ccc2c(c1)c(=O)n(C)n2-c1ccc(C(C)(C)C)cc1
 : -19%	32%
COC(=O)c1ccc2ccccc2n1
 : -4%	6%
CC(C)NC(=O)N(C)C[C@@H]1Oc2cc(C#Cc3ccccn3)ccc2S(=O)(=O)N([C@@H](C)CO)C[C@H]1C
 : 0%	8%
Cc1cccc(N2CCN(C(C(=O)NCc3ccccc3)c3ccc(F)cc3)CC2)c1C (configuration not stated)
 : u	-2%
O=C(NCCN1CCC(n2c(=O)[nH]c3ccccc32)CC1)c1ccc(Cl)c(Cl)c1
 : u	-8%
COc1cccc(CNC(=O)[C@@H]2CCCN2C(=O)[C@H]2CCCCN2C(=O)c2ccccc2C)c1
 : -7%	-1%
CCc1nc2ccc(C(=O)NCc3ccccc3OC)cn2c1N(CCC(C)C)CCN(C)C
 : -16%	-5%[18.4 µM]
Cc1cccc(C)c1NC(=O)Nc1nc(C(N)c2ccccc2Cl)cs1 (configuration not stated)
 : -19%	0%[18.4 µM]
COc1cc2c(cc1NC(=O)c1ccccc1-c1ccccc1C(=O)O)-c1ccccc1C2
 : -5%	0%
CC(=O)c1ccc2cc3c(cc2c1)OCO3
 : 5%	-5%
CC(=O)OCC1OC(n2cc(F)c(=O)[nH]c2=O)C(OC(C)=O)C1OC(C)=O (configuration not stated)
 : -3%	12%
Cc1ccccc1S(=O)(=O)N(C)C[C@@H]1OCc2cn(nn2)CCCC(=O)N([C@H](C)CO)C[C@H]1C
 : -13%	-12%
CN1C=CC(=O)[C@@H](O)[C@H]1c1ccccc1Br
 : -5%	14%
CCN(CC)C(=O)Cn1cc(SCC(=O)NC2CCCCC2)c2ccccc21
 : 5%	-17%
CCNC(=O)C1(C)CCCN(Cc2csc(-c3ccccc3)n2)C1 (configuration not stated)
 : -3%	-7%
Cc1ccc(C)c(S(=O)(=O)N(C)c2ccc(OC(=O)CN3C(=O)NC4(CCCC4)C3=O)cc2)c1
 : -21%	-6%
CN(C)c1ncnc2c1ncn2[C@H]1CN(Cc2cccnc2)C[C@@H](CO)O1
 : -5%	-17%
CCCCNC(=O)C1(C)CCN1C(=O)c1cccc(OC(F)(F)F)c1 (configuration not stated)
 : -9%	6%[18.4 µM]
COCCN1C(=O)COc2ccccc2C1C(=O)Nc1ccc2c(c1)OCCO2 (configuration not stated)
 : -14%	3%
COc1ccccc1-c1cnc2c(Nc3cccc(OC(F)(F)C(F)F)c3)nccn12
 : 0%	0%
CC(=O)Nc1cccc(-c2cc(NC(C)=O)c3ncc(-c4ccc(F)cc4)n3c2)c1
 : -21%	0%[18.4 µM]
O=C(C[C@@H]1CC[C@H](NC(=O)Cc2ccccn2)[C@@H](CO)O1)NCCc1ccccc1
 : -9%	-2%
CC1(C(=O)NCc2cccnc2)CCN1C(=O)c1cccc(F)c1 (configuration not stated)
 : -9%	-1%
CCCS(=O)(=O)NC(=O)C1(C)CCCN(C(=O)Cc2ccc3ccccc3c2)C1 (configuration not stated)
 : 0%	5%
COC(=O)c1c(C)[nH]c(C(=O)OC(C)C(=O)NC2CCCCC2C)c1C (configuration not stated)
 : -22%	9%
O=[N+]([O-])c1ccc(-c2csc(COc3ccccc3)n2)cc1
 : 31%[activator]	-1%
O=C(NC1CCCC1)C(c1ccccc1)n1c(-c2ccc3c(c2)CCO3)nc2ccccc21 (configuration not stated)
 : -7%	-16%
CCCCn1nnnc1C(c1ccccc1)N1CCN(c2ncc(C(F)(F)F)cc2Cl)CC1 (configuration not stated)
 : u	-8%
CCCNC(=O)C1(C)CCCN(C(=O)c2cccc(OC(F)(F)F)c2)C1 (configuration not stated)
 : -23%	-16%
Cc1cc(F)ccc1-c1cc(C(=O)NC2CCCCC2)[nH]n1
 : 27%	-12%
Cc1ccc(Cc2c(-c3ccc(C)cc3)nc3ccc(Br)cn23)cc1
 : 0%	-5%
CC1(c2nnc(-c3ccncc3)o2)CC(c2ccccc2)=NO1 (configuration not stated)
 : -16%	5%
COC(=O)[C@H](Cc1ccccc1)NCCCn1cnc(C(=O)Nc2ccc(C)c(C)c2)n1
 : -14%	-22%
O=C(COC(=O)c1cc(S(=O)(=O)N2CCCCC2)ccc1N1CCOCC1)c1ccccc1Cl
 : -7%	0%
OC(c1ccc(F)c(F)c1)c1nc(-c2cccc3cccnc23)cs1 (configuration not stated)
 : 31%[activator]	-24%[18.4 µM]
CCOC(=O)[C@]12CCC=C1N(Cc1ccccc1)C(=O)[C@H](CC(=O)N1CCCCC1)C2
 : -14%	-9%

New compounds follow.
Fields – StopGo reporter	RE007 growth inh
CC(C)NC(=O)C1(C#N)C=C1c1ccccc1 (configuration not stated)
 : 0%	-17%
Cc1cc(C)c(C(O)c2ncc(-c3cccc(F)c3)[nH]2)c(C)c1 (configuration not stated)
 : -5%	-13%[18.4 µM]
CC(=O)C(=Cc1ccc(Cl)cc1)C(=O)c1ccccc1
 : 28µM*	u
C[C@@H]1CN([C@H](C)CO)C(=O)CCCn2cc(nn2)CO[C@H]1CN(C)C(=O)c1ccccc1
 : -1%	6%
CC(C)CC1C(=O)N(Cc2cn(Cc3ccco3)nn2)CCS(=O)(=O)N1Cc1ccc(-c2cccc(N(C)C)c2)cc1 (configuration not stated)
 : 0%	6%
Cc1cccc(C)c1NC(=O)C1(C)CN(S(C)(=O)=O)CC(=O)N1CCOc1ccccc1 (configuration not stated)
 : -26%	1%
COCCN1C(=O)CN(S(C)(=O)=O)CC1(C)C(=O)Nc1c(C)cccc1C (configuration not stated)
 : -8%	12%
Nc1cccc(OCCCCCOc2cccc(N)c2)c1
 : 0%	-2%
CSc1nnc2sc3cc(C)ccc3n12
 : 37%[activator]	-20%
CCOc1cccc(-c2cc(N3CCN(CCO)CC3)n3nccc3n2)c1
 : -19%	-7%
CCOC1=C2[C@H](c3ccc(CC)cc3)N(S(=O)(=O)c3ccc(C)cc3)C[C@H]2n2c(=O)n(-c3ccccc3)c(=O)n2C1
 : 5%	2%
CC(C)C(=O)N1CCC1(C)C(=O)NCc1ccc(C(C)(C)C)cc1 (configuration not stated)
 : -3%	2%[18.4 µM]
COc1cccc(OCC(O)CN2CCN(C(c3ccccc3)c3ccccc3)CC2)c1 (configuration not stated)
 : -2%	2%
CC(C)C[C@H]1COc2cc(N3CCC[C@H]3CO)ccc2S(=O)(=O)N1
 : -17%	-11%
CCN(CC)C(=O)C1=C(C)N(Cc2ccc(OC)cc2)C(=O)C(CC(=O)NCC2CCCCC2)C1 (configuration not stated)
 : 29%	-2%
O=c1[nH][nH]c2c1[C@H](c1ccc(Cl)cc1)O[C@H](C1CC1)C2
 : 5%	-4%
